KCNQ2 enhance: potentiators of rat KCNQ2 potassium channel; AID 2239, 2010; CHO-K1 KCNQ2, FluxOR thallium flux fluorescence; hits give high values; 0.54% of 310,000 active; Potassium voltage-gated channel subfamily KQT member 2 (Rattus norvegicus), O88943; B-score at 10 µM;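 active = fluorescence ratio B-score at least 3 SD of library B-scores, with initial fluorescence B-score within 3 SD, cut at about 5.3 in these data; same plate scores as AID 2156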;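 note: B-score of peak minus minimum over baseline fluorescence ratio after K+ and Tl+ stimulus; positive B-score means potentiation of KCNQ2 with more thallium influx and brighter signal; only the inactives scoring about 0 or higher are listed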
Target sequence (O88943 whole entry, looked up): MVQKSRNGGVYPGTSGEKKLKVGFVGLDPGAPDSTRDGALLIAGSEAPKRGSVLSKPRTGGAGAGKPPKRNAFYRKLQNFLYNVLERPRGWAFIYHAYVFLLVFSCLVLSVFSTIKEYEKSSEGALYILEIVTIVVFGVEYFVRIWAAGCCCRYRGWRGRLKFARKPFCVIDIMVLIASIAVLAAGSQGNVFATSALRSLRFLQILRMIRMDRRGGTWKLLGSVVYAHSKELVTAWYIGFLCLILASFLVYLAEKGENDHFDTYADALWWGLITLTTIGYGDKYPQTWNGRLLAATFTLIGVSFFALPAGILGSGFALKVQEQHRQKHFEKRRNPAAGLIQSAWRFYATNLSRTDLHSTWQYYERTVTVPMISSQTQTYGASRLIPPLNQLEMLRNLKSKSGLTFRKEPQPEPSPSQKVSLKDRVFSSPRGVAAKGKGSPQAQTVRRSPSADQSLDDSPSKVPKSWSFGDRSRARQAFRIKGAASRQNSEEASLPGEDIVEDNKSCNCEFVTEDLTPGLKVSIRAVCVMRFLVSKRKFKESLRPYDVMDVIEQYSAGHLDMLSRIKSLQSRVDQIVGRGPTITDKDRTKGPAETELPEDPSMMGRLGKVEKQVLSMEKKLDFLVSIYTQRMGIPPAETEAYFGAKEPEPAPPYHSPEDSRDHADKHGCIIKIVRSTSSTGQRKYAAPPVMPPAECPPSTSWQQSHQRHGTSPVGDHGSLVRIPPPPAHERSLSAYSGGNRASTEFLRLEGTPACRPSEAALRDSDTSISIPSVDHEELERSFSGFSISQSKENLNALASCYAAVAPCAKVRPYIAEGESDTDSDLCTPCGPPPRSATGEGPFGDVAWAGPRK
KCNQ2 enhance baseline: also measured in KCNQ2 enhance; calls as there; B-score; compound at 10 µM; measured here: initial fluorescence intensity artifact check;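 brightness before thallium and not channel activity; 0 = typical well and far values either way flag optical interference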
Starred values were filed as active, the others as inactive; / = not tested or not shown; & = joins results of further samples.

SMILES	KCNQ2 enhance	KCNQ2 enhance baseline
CN1C2CCC1CC(OC(c1ccccc1)c1ccccc1N)C2 (stereo not drawn)	0.98	-1.6
CC12CN3CC(C)(CN(C1)P3(=O)Oc1ccccc1)C2=O (stereo not drawn)	0.42	-0.4
CCCCC/C(=N/O)c1c(C)[nH]c2ccccc12	0.6	-0.7
Cc1c(C(c2ccc(Br)cc2)c2c(O)c3ccccc3oc2=O)c(=O)n(-c2ccccc2)n1C (stereo not drawn)	1.1	2.7
COC(=O)C(NC(=S)N1CC2C[C@@H](C1)Cn1c2cccc1=O)C(C)C (stereo partly drawn)	0.02	-0.83
O=c1[nH]c(=O)n(C2CCCCC2)c(O)c1C=Nc1ccc(N2CCOCC2)cc1	0.56	3.1
CCN(CC)CCCN=Cc1c(O)n(-c2ccccc2F)c(=O)[nH]c1=O	0.12	0.34
CCC(=NCCO)c1c(O)n(-c2ccc(Cl)cc2)c(=O)[nH]c1=O	0.07	-0.01
Cc1ccc(N(C)C(=O)Oc2cccc3ccc(C)nc23)cc1	0.03	0.74
COc1ccc2c(c1OC)C(=O)OC2c1c(O)n(Cc2ccc(F)cc2)c(=O)[nH]c1=O (stereo not drawn)	0.03	0.83
Cc1ccccc1NC(=O)NCCN1CC1	1.6	0.96
COc1ccc(-c2nn(CCC#N)cc2C(=O)O)cc1	0.02	1.6
C=Cn1ccnc1P(O)(=S)c1nc(C)c(CCOC(C)=O)s1 (stereo not drawn)	0.21	0.01
COc1ccc(Cc2c(O)[nH]c(=S)[nH]c2=O)cc1	1.3	-0.83
Cc1nc2ccccc2c(=O)n1-c1ccccc1[N+](=O)[O-]	1.1	-0.07
CN1CCN(/N=C/c2c(O)n(C)c(=O)n(C)c2=O)CC1	0.85	0.26
Cc1ccc(N2C(=O)CC(=O)NC2=O)c(C)c1	1.1	1.9
COc1ccc(C[C@@H]2c3cc(O)c(OC)cc3CCN2C)cc1O	0.04	-0.02
CC(=O)NNC(=O)CN1C(=O)CN=C(c2ccccc2)c2cc(Br)ccc21	1.3	-0.31
C[N+]1(C)[C@@H]2CC[C@H]1CC(OC(=O)[C@@H](CO)c1ccccc1)C2 (stereo partly drawn)	0.23	-1.4
O=C1NC(=O)N(Cc2ccc(F)cc2)C(=O)/C1=C\c1ccc(N2CCCC2)cc1	1.1	0.69
C1=C(CCNCc2ccccc2)CCCC1	1.2	-0.8
C=CCn1c(O)c(C=Nc2ccc(F)cc2)c(=O)[nH]c1=O	0.22	0.71
CCN(CC)CCNCc1nc2ccccc2c(=O)n1-c1ccc(F)cc1	0.01	-0.01
N=C1c2ccccc2CN1NC(=O)c1ccc(Br)cc1	0.05	-0.33

Pulled by structure from above:
SMILES	KCNQ2 enhance	KCNQ2 enhance baseline
COC(=O)C(NC(=S)N1CC2C[C@@H](C1)Cn1c2cccc1=O)C(C)C (stereo partly drawn)	0.02	-0.83
C[N+]1(C)[C@@H]2CC[C@H]1CC(OC(=O)[C@@H](CO)c1ccccc1)C2 (stereo partly drawn)	0.23	-1.4

Profiles, looked up by structure. Values in the order: KCNQ2 enhance, KCNQ2 enhance baseline
CN1CCN(/N=C/c2c(O)n(C)c(=O)n(C)c2=O)CC1 as listed: 0.85, 0.26
C[N+]1(C)[C@@H]2CC[C@H]1CC(OC(=O)[C@@H](CO)c1ccccc1)C2 (stereo partly drawn) as listed: 0.23, -1.4
C1=C(CCNCc2ccccc2)CCCC1 as listed: 1.2, -0.8
Cc1nc2ccccc2c(=O)n1-c1ccccc1[N+](=O)[O-] as listed: 1.1, -0.07

Additional entries.
SMILES	KCNQ2 enhance	KCNQ2 enhance baseline
CC/C(=N\NC(N)=O)c1c(O)[nH]c(=O)[nH]c1=O	1.8	-0.02
CC(=O)C1C2c3ccccc3OC1(C)N=c1s/c(=C/c3cnn(C)c3)c(=O)n12 (stereo not drawn)	0.18	-1.6
COc1ccc(C(=O)CN2CCCCC2)cc1	3.2	-1.5
CCN1CCN(Cc2cc(Br)ccc2O)CC1	0.03	0.07
Cc1cccc(CCNCc2cc3cccc(C)c3[nH]c2=O)c1	1.1	-0.01
COC1=CCC2([N+](=O)[O-])CN(C)CC1([N+](=O)[O-])C2 (stereo not drawn)	0.77	1.5
COCCCn1c(N)c(C(=O)Nc2ccccc2)c2nc3ccccc3nc21	2.5	-1.1
c1ccc(C2=NP(N3CCOCC3)(N3CCOCC3)=NC(N3CCOCC3)=N2)cc1	0.41	0.1
CC(=NCCN1CCCCC1)c1c(O)n(-c2ccc(Cl)cc2)c(=O)[nH]c1=O	0.24	-0.2
Cc1ccc(-n2c(O)c(/C=C/C=Nc3ccccc3)c(=O)[nH]c2=O)cc1	0.07	0.2
CC1=CC(=Cc2sc3ccccc3[n+]2C)C=C(C)O1	1.1	0.25
O=C(c1ccccc1)C1CCCN(Cc2nc(-c3cnccn3)no2)C1 (stereo not drawn)	0.69	-0.66
Cn1cnc([N+](=O)[O-])c1Sc1ccc([N+](=O)[O-])cc1	0.27	-1.1
O=c1[nH]c(=S)n(C2CC2)c(O)c1/C=N/N1CCOCC1	2.8	-0.87
O=C(c1cccc(N2CCCC2=O)c1)N1CCC2(CC1)OCCO2	0.67	1.5
CC(=O)c1c(C)n(C2CCCCC2)c2ccc(O)cc12	0.72	0.6
Cc1ccccc1-n1c(O)c(C(c2ccncc2)c2c(O)n(-c3ccccc3C)c(=O)[nH]c2=O)c(=O)[nH]c1=O	0.22	/
COc1cc(Br)c(CNCCc2ccc3c(c2)OCO3)cc1OC	2.9	0.46
Cc1cc(C)c(Cn2c(C(=O)O)c(C=O)c3ccccc32)c(C)c1	1.4	-0.16
Cc1ccc(N2C(=O)NC(=O)/C(=C/c3cnn(-c4ccc(C)cc4)c3)C2=O)cc1	0.14	0.31
Cc1[nH]c2c(Cl)cccc2c1CCN	0.26	-0.91
CCOc1cc2c(cc1OCC)-n1cccc1C(c1cccc(F)c1)NC2 (stereo not drawn)	0.28	-0.4
CCOP(=S)(OCC)C(O)CCCCCn1c(=O)c(F)cn(C2CCCO2)c1=O (stereo not drawn)	0.04	-0.16
O=C(CN1CCCC1)Nc1ccc(Cl)cc1C(=O)c1ccccc1	1.1	-0.43
O=[N+]([O-])c1cccc(C2N3CCCN23)c1 (stereo not drawn)	1.1	-1.7

3 entries from above, bar-delimited.
smiles | KCNQ2 enhance | KCNQ2 enhance baseline
Cn1cnc([N+](=O)[O-])c1Sc1ccc([N+](=O)[O-])cc1 | 0.27 | -1.1
O=C(CN1CCCC1)Nc1ccc(Cl)cc1C(=O)c1ccccc1 | 1.1 | -0.43
Cc1nc2ccccc2c(=O)n1-c1ccccc1[N+](=O)[O-] | 1.1 | -0.07

Later entries.
SMILES	KCNQ2 enhance	KCNQ2 enhance baseline
CC(c1ccccc1)n1cncc1C(=O)O (stereo not drawn)	1.1	-0.65
OCC12COC3c4ccccc4C(OC1)N32 (stereo not drawn)	0.37	0.78
CCN(CC)C1=NC(=[N+](CC)CC)c2ccccc21	0.69	-2
CCn1c(O)c(C(c2ccccn2)c2c(O)n(CC)c(=S)[nH]c2=O)c(=O)[nH]c1=S	0.21	-0.61
NNC(=O)c1ccc(Cl)cc1	0.22	-0.06
COC(=O)C1=C(c2ccc(S(C)(=O)=O)cc2)C[C@@H]2CC[C@H]1N2C(=O)NC1CCCCC1	0.76	0.8
O=C(c1cccnc1)C1CCCN(Cc2nc(-c3cnccn3)no2)C1 (stereo not drawn)	0.09	-0.01
COc1ccccc1N1CCN(Cc2c(F)cccc2F)CC1	1.2	1.1
Cc1cccc(N/N=C/c2c(O)[nH]c(=S)[nH]c2=O)c1	0.76	3.5
Cc1ccc2c(c1)CC1(CN2C)C(=O)NC(=O)N(c2cccc(C)c2C)C1=O (stereo not drawn)	0.85	0.24
CCOC(=O)C1CCN(C(C)C(=O)c2c[nH]c3ccccc23)CC1 (stereo not drawn)	0.89	-2.3
COc1ccccc1N1C(=O)NC(=O)C(CCc2ccncc2)(CCc2ccncc2)C1=O	1.6	0.37
CCOP(=O)(OCC)C(Cc1ccccc1)NC(C)=O (stereo not drawn)	0.78	-0.22
O=C(/C=C/c1ccccc1)NC(=S)N1C[C@H]2C[C@H](C1)c1cccc(=O)n1C2	2.4	0.63
COc1cc(N2C(=O)CC(=O)NC2=O)cc(OC)c1OC	0.67	1.5
CCOC(=O)C1=C(N)OC2=C(C(=O)CCC2)C12C(=O)N(C)c1ccccc12 (stereo not drawn)	0.13	-0.47
CC1CCN2c3nc4ccccn4c(=O)c3CC3(C(=O)N(C)C(=O)N(C)C3=O)C2C1 (stereo not drawn)	0.23	-0.5
CCOc1cc2c(cc1OCC)-n1cccc1C(c1ccccc1O)NC2 (stereo not drawn)	0.02	-1.4
Cc1cccnc1-n1c(-c2ccco2)nc2ccccc2c1=O	0.52	-0.03
CC(C)n1c(O)c(C=NCc2ccccc2)c(=O)[nH]c1=S	0.79	0.63
Cn1nnc(CC[N+](C)(C)C)n1	0.54	-0.78
COc1ccc(C(=O)CN2CCOCC2)cc1F	0.04	-1.9
Cn1c(O)c(C=NCCN2CCOCC2)c(=O)[nH]c1=S	0.38	2
Nc1c(C(=O)NCc2ccco2)c2nc3ccccc3nc2n1Cc1ccc(F)cc1	2.6	0.82
O=C(CCC(=O)N1C[C@H]2C[C@@H](C1)c1cccc(=O)n1C2)NCc1ccccc1	0.14	-0.07
(more compounds)
SMILES	KCNQ2 enhance	KCNQ2 enhance baseline
CC/C(=N\NC(=O)c1ccccc1)c1c(O)n(C2CCCCC2)c(=O)[nH]c1=O	3.7	-0.41
CC1CCCCN1Cc1c[nH]c2ccccc12 (stereo not drawn)	0.08	0.92
O=C(c1ccc(Br)cc1)C12CN3CN(CN(C3)C1)C2	0.36	-0.41
OC1/C(=C/c2ccc(Cl)cc2Cl)N2CCC1CC2 (stereo not drawn)	0.06	0.23
O=c1[nH]c(=O)n(CCc2ccc(F)cc2)c(O)c1C=NCCCN1CCOCC1	0.62	-0.57
O[C@H]1[C@H](O)[C@@H](O)CN2CC[C@H](O)[C@H]12	1.4	-0.38
CC(C)CCC1(CN2CCCC2=O)C(=O)NC(=O)NC1=O	0.87	0.74
COc1cc2[nH]c(=O)n(-c3ccccc3)c(=O)c2cc1OC	0.7	-1.3
CCC(CC)C(=O)NC1CCSC1=O (stereo not drawn)	0.47	0.19
CCOC(=O)[C@]1(C#N)[C@@H]2C=CC(C(N)=O)=CN2[C@@H](C(N)=O)[C@@H]1c1ccc(F)cc1	0.48	1.4
O=C1CNC(c2ccccc2Cl)c2cc(Br)ccc2N1 (stereo not drawn)	0.04	-0.4
Cc1c(C(=O)N2CCC3(CC2)OCCO3)sc2ncnc(N3CCc4ccccc4C3)c12	0.7	-1.8
CC1(C)CN=C(Nc2ccc(F)c(F)c2)S1	0.07	-0.6
CC(C)C(=O)NC(Oc1ccccc1Cl)C(Cl)(Cl)Cl (stereo not drawn)	0.55	3.1
CN(C)C(=O)Oc1ccc(Cl)c2ccccc12	0.22	0.5
COc1ccccc1/C=C1\C(=O)NC(=S)N(c2ccccc2)C1=O	0.03	2.2
CCc1cc(=O)oc2cc(OCC(=O)N3C[C@H]4C[C@@H](C3)c3cccc(=O)n3C4)c(Cl)cc12	0.09	1.2
O=C(N/N=C/c1c(O)n(CCC2=CCCCC2)c(=O)[nH]c1=O)c1ccccc1	1.9	-0.69
CCc1c(C)nc(N)nc1N1N=C1SC(C(C)=O)C(C)=O	2.2	0.08
Cc1nn(Cc2ccccc2)c(Cl)c1C(=O)OCC(=O)N1CCCC1	1.3	-0.46
CC(=O)OCC[N+](C)(C)C	0.2&0.43	/
COc1ccc(N2C(=O)CC(=O)NC2=O)cc1	1.6	-0.58
Nc1ccc([As](=O)(O)O)cc1	0.16	0.59
CC(C)c1ccc(-n2c(O)c(/C=N/N3CCOCC3)c(=O)[nH]c2=S)cc1	0.03	-1.2
CNCC(O)c1ccc(O)cc1 (stereo not drawn)	0.25	-0.37
More records.
SMILES	KCNQ2 enhance	KCNQ2 enhance baseline
O=C1OCc2cc(N=Nc3c(O)[nH]c(=O)[nH]c3=O)ccc21	0.47	-0.48
N=C1SCC(=O)N1Cc1ccccc1	1.3	0.77
CCN1C[C@]2(OC(=O)c3ccccc3NC(C)=O)CCC(OC)C34C5C[C@H]6C(OC)[C@]5(O)[C@](O)(C[C@@H]6OC)C(C[C@@H]32)[C@H]14 (stereo partly drawn)	0.02	0.95
Cc1c(N=Cc2c(O)n(Cc3ccccc3)c(=O)[nH]c2=O)c(=O)n(-c2ccccc2)n1C	0.02	0.05
CCN(CC)CCN=Cc1c(O)n(CCC2=CCCCC2)c(=O)[nH]c1=O	1.3	4.1
Cc1ccc(-n2c(O)c(/C=N/Nc3ccccc3)c(=O)[nH]c2=O)cc1C	0.02	0.5
C=CCN1C(=O)NC(=O)/C(=C/c2ccc(OCC(=O)Nc3ccc(C)cc3)cc2)C1=O	0.17	-0.07
NC(CC(=O)O)C1CCCCC1 (stereo not drawn)	0.43	-1.3
O=c1c2cc(Cl)cc(Cl)c2nc(CN2CCOCC2)n1-c1ccccc1F	1.1	-0.98
CC/C(=N\N1CCCCCC1)c1c(O)n(-c2ccc(C)cc2)c(=O)[nH]c1=O	0.18	-1
CCN(CC)C(=O)c1ccc(NC(=O)CSc2nnnn2-c2cc(OC)ccc2OC)cc1	1.9	-1.4
CCCCn1c(O)c(C(C)=NCCc2c[nH]c3ccccc23)c(=O)[nH]c1=O	2.1	-2.8
CCOC(=O)C1=C(N)OC2=C(C(=O)CCC2)C12C(=O)N1c3c(ccc(C)c32)C(C)=CC1(C)C (stereo not drawn)	1.2	-1.7
O=c1c2ccccc2[nH]c(=S)n1-c1ccc2c(c1)OCCO2	0.17	-0.65
O=C(c1cc2cc(Br)ccc2[nH]1)N1CCC2(CC1)OCCO2	0.18	-1.4
NCCc1c[nH]c2ccc(F)cc12	1.7	-0.11
CCCCN=Cc1c(O)n(-c2c(C)cc(C)cc2C)c(=O)[nH]c1=O	0.04	1.5
O=CC(Cl)P(=O)(N1CCOCC1)N1CCOCC1 (stereo not drawn)	1.5	1.3
c1cc(CCN2CCCC2)ccn1	0.61	1.7

Assay outcomes deposited in PubChem by Johns Hopkins Ion Channel Center.

These rows are one share of the data, so the mix of outcomes need not match the whole.
